Compound activity from PubChem BioAssay.
miR-21 FLuc: qHTS Assay for Modulators of miRNAs and/orActivators of miR-21; HeLa miR-21 FLuc reporter, luciferase, 48 h; Potency, µM (series often up to 38.3 µM), without a hit: at the top dose reporter change, positive = more light; 340,000 tested, under 10 active; AID 2288, 2010; active = well fitted rising curve with a large enough effect; inconclusive = small, poorly fitted or top-dose-only effect; inactive = no such curve, though single readings can be large or run the other way;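 note: % of control where 0% means no effect; miR-21 action dims this reporter so a rising signal means less miR-21 action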
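Compounds were titrated across several concentrations (up to approximately 40 uM) and incubated 48 hours with HeLa miR-21-FLuc reporter cells (miR-21 target sequence downstream of FLuc, endogenous miR-21). Readout was firefly luciferase luminescence after lytic detection reagent.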
Rango dissoc inh: qHTS Assay for Inhibitors of RanGTP induced Rango (Ran-regulated importin-beta cargo) - Importin beta complex dissociation. Snurportin-1 (Homo sapiens) + GTP-binding nuclear protein Ran (Homo sapiens) + Importin …. Biochemical FRET Rango-importin beta, RanGTP-induced dissociation. Potency, µM (highest dose often 46.1 µM), inactives show at the highest dose activity change, negative = inhibition. 340,000 compounds, 0.071% hits. AID 540253, 2011; active means falling FRET ratio curve, often poorly fitted, with flat reads before Ran was added; inconclusive means other falling curves, or compound fluorescence or quenching; inactive means flat or rising ratio curve;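 note: potency is the fitted concentration of half-maximal effect; % of control where 0% means no effect; nearly all actives have a fitted effect of over 45% in size; -100% = wells without RanGTP and RCC1; the record marks most hits as doubtful in a second field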
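Quantitative HTS using a FRET biosensor: 0.1 uM Rango, 0.25 uM importin beta, 0.6 uM Ran, 2 mM GTP, 0.2 uM RCC1 final, PBS with DTT, Tween-20 and BSA. Post-read taken 45 min after Ran addition.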
Rango-impB inh: qHTS Assay for Inhibitors of Rango (Ran-regulated importin-beta cargo) - Importin beta complex formation. Potency, µM (top dose mostly 92.2 µM), for inactives: top-dose inhibition of complex formation. Rango CFP/YFP FRET sensor + importin beta, 45 min. 340,000 compounds, 0.031% hits. Importin subunit beta-1 (Homo sapiens), Q14974; active = rising FRET ratio curve, often small or poorly fitted; inconclusive = mostly compound fluorescence or quenching in the first reads; inactive = flat curves in all reads;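 note: potency is the fitted concentration of half-maximal effect; 0% = DMSO wells and 100% = buffer wells lacking importin beta; nearly all actives have a fitted effect of over 15% in size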
Target sequence (Q14974 whole entry, looked up): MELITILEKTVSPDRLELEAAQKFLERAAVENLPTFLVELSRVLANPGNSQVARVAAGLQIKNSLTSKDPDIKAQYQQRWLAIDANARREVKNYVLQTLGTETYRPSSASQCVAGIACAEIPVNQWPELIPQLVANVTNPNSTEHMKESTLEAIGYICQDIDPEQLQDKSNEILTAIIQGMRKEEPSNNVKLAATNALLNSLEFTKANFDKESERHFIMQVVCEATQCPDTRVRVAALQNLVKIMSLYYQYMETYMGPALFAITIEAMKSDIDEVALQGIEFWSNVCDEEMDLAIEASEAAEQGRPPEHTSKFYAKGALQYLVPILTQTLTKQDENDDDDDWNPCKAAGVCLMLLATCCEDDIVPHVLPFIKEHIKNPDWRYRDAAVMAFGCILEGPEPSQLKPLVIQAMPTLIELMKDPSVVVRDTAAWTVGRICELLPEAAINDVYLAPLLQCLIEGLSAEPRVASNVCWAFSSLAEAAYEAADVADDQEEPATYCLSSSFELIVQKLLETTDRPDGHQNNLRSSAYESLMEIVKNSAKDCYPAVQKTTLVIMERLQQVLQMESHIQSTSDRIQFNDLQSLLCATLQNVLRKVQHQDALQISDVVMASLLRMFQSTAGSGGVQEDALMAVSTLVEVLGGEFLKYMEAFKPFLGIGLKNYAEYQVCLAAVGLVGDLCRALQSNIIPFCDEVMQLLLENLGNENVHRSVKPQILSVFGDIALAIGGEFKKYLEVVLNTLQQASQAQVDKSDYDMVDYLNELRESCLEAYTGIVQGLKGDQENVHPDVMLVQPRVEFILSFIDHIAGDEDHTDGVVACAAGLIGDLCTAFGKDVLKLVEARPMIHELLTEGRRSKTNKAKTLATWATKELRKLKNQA
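FRET biosensor Rango (snurportin 1 IBB between N-terminal EYFP and C-terminal Cerulean), 50 nM in PBS/1 mM DTT/0.02% Tween-20/0.1% BSA, preincubated 5 min RT with compound; 0.125 microM importin beta added, 45 min RT, CFP/YFP FRET ratio read.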
GLA inh pH 4.5: qHTS Assay for Inhibitors of Human alpha-Galactosidase at pH 4.5; 230,000 tested, under 10 active; Alpha-galactosidase A (Homo sapiens), P06280; activity change, negative = inhibition, % at 105 µM; AID 1467, 2008; purified enzyme, 4-MU-alpha-Gal fluorescence, pH 4.5; inconclusive = small, poorly fitted or top-dose-only inhibition, or a rising curve; inactive = flat fitted curve, though single readings scatter; no compound was filed as active;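 note: 0% = full activity with enzyme and -100% = basal without enzyme; dose as in the result columns while the protocol names 77 µM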
An asterisk follows results filed as active; ? = inconclusive; / = not tested or not shown; & = joins results of further samples. This is a subset, so the mix of outcomes need not match the whole.

GLA inh pH 4.5,Rango dissoc inh,miR-21 FLuc,Rango-impB inh,mol
-0.6,19.1%,?,0.0%,CC(C)Oc1ccccc1C1CC(=O)Nc2cc3c(cc21)OCO3 (stereo unspecified)
-1.2,-0.2%,-8.2%,-0.2%,CC12C(=O)N(c3nccs3)C(=O)C1C1C=CC2C1 (stereo unspecified)
-3.4,?,-43.7%,?,CC(=Nc1ccc(C)cc1C)c1sc2ccccc2c1O
1.3,-12.6%,17.7%,0.4%,CC(C)(C)n1ncc2c(=O)n(CC(=O)NCc3ccc(F)cc3)cnc21
9.4,7.3%,-20.6%,6.6%,Cc1ccc(-c2cc3nn(-c4ccccc4)c(N)c3c(=O)o2)cc1
/,-7.7%,0.0%,3.5%,O=C(O)C1C2C=CC(O2)C1C(=O)Nc1cccc(C(F)(F)F)c1 (stereo unspecified)
6.6,14.1%,-4.9%,6.5%,CC(Sc1nc(N2CCOCC2)nc(N2CCOCC2)n1)C(=O)Nc1ccccc1 (stereo unspecified)
2.0,-8.3%,-44.5%,-3.6%,O=C(Nc1ccc(N2CCCCC2)cc1)c1ccc(F)cc1
9.0,0.6%,-13.4%,-5.0%,O=[N+]([O-])c1cccc(/C([O-])=C(/C(=S)Nc2cccc3ccccc23)[n+]2ccccc2)c1
/,14.5%,/,-0.4%,COc1ccccc1CNC(=O)CN1C(=O)NC2(CCC(C)CC2)C1=O (stereo unspecified)
5.2,6.8%,4.8%,0.7%,Cc1cccc(N2CCN(C(=S)NCCc3ccccc3)CC2)c1C
-2.0,11.3%,-31.9%,5.3%,CCOc1ccc(C(=O)NCC(C)C)cc1
/,-2.3%,5.8%&-5.2%,0.9%,COc1ccc(-c2cc(C(=O)Nc3cccnc3Cl)no2)cc1OC
/,?,-3.1%,?,COc1ccc(C(=O)Nc2ccnn2C2CCN(C(C)CSC)CC2)cc1 (stereo unspecified)
/,2.0%,-3.7%,-3.6%,CN(CC(=O)N1CCc2ccccc2C1)c1ccccc1
-8.3,-1.3%,-20.0%,-3.7%,CCOC(=O)c1c(C)[nH]c(C(=O)COC(=O)C2(C)CC2(Cl)Cl)c1C (stereo unspecified)
/,16.3%,-1.2%,-2.7%,O=C1NCCCCC1NS(=O)(=O)c1cccc2ccccc12 (stereo unspecified)
9.1,-14.6%,-1.7%,-1.7%,Cc1nnc(NC(=O)CSc2n[nH]c(-c3ccccc3)n2)s1
-6.2,-7.7%,-5.4%,-3.2%,CCCN(C(=O)Cc1nc(N)n[nH]1)C1(C(=O)Nc2c(C)cccc2C)CCCCC1
4.9,21.4%,0.8%,?,N#C/C(=C/c1ccc(C(=O)O)cc1)C(=O)Nc1ccccc1
-9.5,-3.3%,-0.5%,2.2%,Cc1cccc(OCC(=O)N/N=C2/SCC(=O)N2Cc2ccco2)c1
-8.9,-6.3%,-4.8%,0.4%,O=C(CSc1nc2ccccc2s1)Nc1cc(S(=O)(=O)N2CCOCC2)ccc1Cl
4.2,0.1%,-2.0%,1.5%,CN(Cc1ccon1)Cc1cn(Cc2ccccc2)nc1-c1ccc2c(c1)OCO2
-12.9,5.9%,-2.8%,-1.8%,CCOC(=O)CCSc1nc2c(c(C(F)(F)F)c1C#N)CCC2
-0.5,14.8%,0.8%,-1.1%,CC1(C)Cc2nc3sc4c(SCC(=O)NCc5ccco5)ncnc4c3cc2CO1

Full records from above.
CCOC(=O)c1c(C)[nH]c(C(=O)COC(=O)C2(C)CC2(Cl)Cl)c1C (stereo unspecified) is listed as GLA inh pH 4.5 = -8.3; Rango dissoc inh = -1.3%; miR-21 FLuc = -20.0%; Rango-impB inh = -3.7%
Cc1cccc(OCC(=O)N/N=C2/SCC(=O)N2Cc2ccco2)c1 is listed as GLA inh pH 4.5 = -9.5; Rango dissoc inh = -3.3%; miR-21 FLuc = -0.5%; Rango-impB inh = 2.2%

Remaining list, next part
GLA inh pH 4.5,Rango dissoc inh,miR-21 FLuc,Rango-impB inh,mol
/,-14.2%,/,?,CCOC(=O)[C@@H]1[C@H]2COc3ccccc3[C@H]2N2C(=O)N(c3ccc(Br)cc3)C(=O)[C@]12C
-2.8,6.8%,-4.5%,3.9%,CCN(CC)C(=O)c1cc([N+](=O)[O-])cc2c1-c1ccc([N+](=O)[O-])cc1C2=C(C#N)C#N
/,0.8%,-41.5%,1.5%,Cc1ccc(OCc2cc(C(=O)N3CCN(c4ccccc4)CC3)no2)cc1C
8.9,1.6%,-5.4%,-1.1%,CCNC(=S)N1CCN(C(=O)c2ccco2)CC1
-4.0,-5.2%,-5.5%,3.1%,O=C1C2C3C=CC(CC3)C2C(=O)N1c1ccc2c(c1)OCO2 (stereo unspecified)
-10.5,-6.8%,-14.4%,-0.3%,NC(=O)c1c(N)sc2c1CCCC2
-3.6,3.2%,-71.6%,-1.3%,CCc1ccc(NC2Nc3cc(C)nn3S2)cc1 (stereo unspecified)
-3.5,-9.6%,-67.2%,3.2%,COc1ccc(NC(=O)C2C3CC/C=C\CCC32)cc1 (stereo unspecified)
-5.3,1.3%,-4.4%,-0.3%,C=CCN(c1ccc(C(=O)Nc2cc(C)cc(C)c2)cc1)S(C)(=O)=O
/,-0.9%,/,-0.2%,CC1(C)CC(=O)C=C(c2ccc(I)cc2)C1
0.0,-4.5%,25.7%,-0.3%,CC(=O)NC1=C(N(C)C2CCS(=O)(=O)C2)C(=O)c2ccccc2C1=O (stereo unspecified)
3.1,0.7%,6.3%,-0.9%,COCCCNS(=O)(=O)c1ccc(S(=O)(=O)N2CCCC2)cc1
0.1,-4.0%,-4.5%,-1.6%,COc1ccc(C2=[N+]([O-])C(C)(C)N(O)C2(C)C)cc1
/,-6.2%,/,-1.5%,Cc1ccc(C(=O)NCC(=O)N2CCCN(C)CC2)cc1C
-2.3,0.7%,-8.7%,4.2%,O=C(CO)N/N=C/c1cccc(Cl)c1Cl
/,8.0%,-0.2%,0.1%,COc1ccc(N2CC(C(=O)N3CCN(C)CC3)CC2=O)cc1 (stereo unspecified)
1.9,-0.2%,-1.6%,0.9%,C/C(CC(=O)Nc1ccc(Cl)c(Cl)c1)=N\NC(=O)C(=O)N1CCCCC1
/,-9.2%,-1.1%,-1.2%,COc1ccc2oc(=O)cc(-c3cc4ccccc4o3)c2c1
-0.3,23.9%,1.7%,-7.1%,O=C(NCCCCc1ccccc1)C1CC(c2ccc(C(F)(F)F)cc2)=NO1 (stereo unspecified)
/,9.3%,/,-2.3%,CN(C=O)c1ccc(CSc2ccccc2)cc1
6.2,10.2%,21.8%,0.1%,CCC1(c2cccc(Cl)c2)NC(=O)N(Cc2cc(C(=O)OC)c(C)o2)C1=O (stereo unspecified)
4.6,5.4%,-3.6%,-0.7%,CCC(Sc1nc(C)cc(=O)[nH]1)C(=O)Nc1nnc(C)s1 (stereo unspecified)
-0.8,9.6%,-0.6%,-5.2%,COc1cc2[nH]c3c(=O)n(CCN(C(C)C)C(C)C)cnc3c2cc1OC
-4.8,-6.0%,3.1%,-3.1%,O=C(NCc1ccc2c(c1)OCO2)c1ccncc1
6.4,22.8%,2.0%,-2.6%,COc1cc(C(=O)NC(=S)N(C)Cc2ccccc2)cc(OC)c1OC
-9.6,-13.7%,1.2%,?,O=C(Nc1nc(-c2ccccn2)cs1)c1ccco1
/,0.5%,-0.7%,5.0%,Nc1nc(-c2ccc3c(c2)CCCC3)c(CC(=O)O)s1
12.4,-7.6%,-0.1%,-1.7%,C/C(N)=C(/C#N)C(=O)COC(=O)CCCNC(=O)c1ccc(Cl)cc1
/,12.1%,-0.1%,3.7%,CCc1ccc(NC(=O)C(CC)Sc2nc3ccsc3c(=O)n2CCC(=O)O)cc1 (stereo unspecified)
4.6,?,2.0%,-1.2%,CC(=O)c1cccc(NC(=O)C2CCN(S(=O)(=O)c3ccc(F)cc3)CC2)c1
/,-3.9%,/,-2.4%,S=c1[nH]nc(-c2ccco2)n1-c1ccc(Br)cc1
7.0,-16.3%,-10.9%,6.7%,O=C(c1ccco1)N1CCN(CCCCOc2ccc(F)cc2)CC1
1.3,-23.8%,?,-5.5%,Oc1ccc(CNc2ccccc2F)c2cccnc12
/,-3.5%,/,1.1%,CC(C)(C)OC(=O)N1CCC(CC2CC(c3ccncc3)=NO2)(C(=O)O)CC1 (stereo unspecified)
/,12.6%,/,3.8%,COc1ccc(NC(=O)CN(C)C(=O)CSCc2c(C)noc2C)cc1
7.9,1.7%,5.5%,8.9%,Cc1ccc(C)c(C(=O)OCC(=O)Nc2ccc(N3CCOCC3)cc2)c1
/,-1.3%,/,?,COc1ccc(C(=O)Nc2ccc(O)c3ccccc23)cc1
/,9.5%,-0.2%,-1.7%,C=CCOc1ccc(/C=C2/C(=O)ON=C2C)cc1OC
-0.3,-13.0%,-8.3%,0.6%,COc1ccc(C2NC(=O)c3ccccc3O2)cc1OC (stereo unspecified)
/,5.8%,2.2%,-0.2%,CN(c1ccccc1)S(=O)(=O)c1ccc2c(c1)oc(=O)n2C
13.9,?,-2.1%,-0.1%,CCCCC(=O)Nc1cc(N(C)C)nc2ccccc12
11.4,-11.2%,-5.2%,0.9%,COc1cc(/C=C(/C#N)C(=O)NCCc2c[nH]c3ccccc23)ccc1OCc1ccccc1F
-4.5,4.0%,-4.2%,1.9%,CCOc1cc2[nH]c(=O)n(CCCCC(=O)N3CCCCCC3)c(=O)c2cc1OCC
0.7,-10.8%,-4.9%,-1.2%,CCOC(=O)CN1CC23C=CC(O2)C(C(=O)NCc2ccc(F)cc2)C3C1=O (stereo unspecified)
-3.6,4.5%,-29.5%,2.7%,O=C(CSc1ccc(-c2ccccn2)nn1)c1ccc(F)cc1
-4.7,-6.9%,-1.1%,3.0%,O=C(CNC1=NCCC1)c1ccc(Cl)cc1
/,4.1%,/,0.4%,CCc1noc(C)c1C(=O)Nc1cccc(S(=O)(=O)N(C)c2ccccc2)c1
/,12.7%,1.9%,-0.1%,CC(c1ccccc1)N1C(=O)c2cccnc2C1=O (stereo unspecified)
-8.5,0.7%,-18.0%,7.1%,CC(C)Oc1ccc(Cn2c(=O)sc3ccccc32)cc1
/,22.2%,/,-3.2%,Cc1cc(OCCCC(=O)Nc2nnc(C3CC3)s2)ccc1Cl

The list goes on:
GLA inh pH 4.5,Rango dissoc inh,miR-21 FLuc,Rango-impB inh,mol
/,-2.6%,/,-0.2%,Nc1cccc(Oc2ccc3c(c2)C(=O)N(CCO)C3=O)c1
-9.0,-1.4%,-3.6%,-0.4%,Cc1cccc(OCc2nnc(SCC(=O)Nc3cccc(C(=O)N4CCOCC4)c3)o2)c1C
-13.5,9.5%,-9.1%,?,O=C(CSc1ccsc1[N+](=O)[O-])N1CCN(c2ccc(Cl)cc2)CC1
/,3.8%,/,-2.9%,Cc1ccc(Nc2nnc(SC(C)C(=O)NCC3CCCO3)s2)cc1C (stereo unspecified)
-3.6,10.9%,-37.2%,-0.6%,COc1ccccc1OCC(O)Cn1nc(C)cc1C (stereo unspecified)
/,10.8%,/,-0.9%,CC(=O)NC12CC3CC(C1)CC(C(=O)N1CCN(S(=O)(=O)c4ccccc4[N+](=O)[O-])CC1)(C3)C2
-10.9,5.2%,2.0%,0.3%,COc1ccc(CCn2c(C3CCCCC3)nc3c(c(=O)c4ccccc4n3C)c2=O)cc1OC
/,7.3%,/,-1.1%,Cc1cc(C)cc(N(CCC#N)C(=O)COC(=O)C2CCN(S(=O)(=O)c3ccc(C)c(C)c3)CC2)c1
4.8,1.7%,-3.2%,1.1%,O=C(NNC(=O)C1CC1c1ccccc1)c1cccc([N+](=O)[O-])c1 (stereo unspecified)
-0.2,-12.3%,-2.2%,2.5%,CSc1ncccc1C(=O)OCC(=O)C(C)(C)C
